# Ecoli growth: E. coli growth inhibition; OD600 absorbance (test concentration not listed); AID 1053175; hit rate 0.21% among 330,000; Escherichia coli growth, OD600, 23 h; stronger effect = lower value;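 active = OD600 absorbance below the run mean of sample wells minus 3.6 SD, in any replicate, cut at about 0.56 in these data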;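 also: stock transfer was 300 nL into about 60 µL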
# MLL AF4-AF9 inh: blocks AF4 peptide binding to human AF9. P42568. AlphaScreen, biotin-AF4 peptide binding to FLAG-AF9. inhibition, % at 10 µM. hit rate 0.47% among 350,000. AID 651704;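 active = every replicate reaching a set inhibition limit, whatever the replicate mean, cut at about 25% in these data; inconclusive = mean inhibition reaches that limit but some replicates miss it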;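 also: 0% = plate neutral control median and 100% = total signal loss; the record names both 10 and 1 µM as test concentration; the first replicate is given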
# Target sequence (P42568 whole entry, looked up): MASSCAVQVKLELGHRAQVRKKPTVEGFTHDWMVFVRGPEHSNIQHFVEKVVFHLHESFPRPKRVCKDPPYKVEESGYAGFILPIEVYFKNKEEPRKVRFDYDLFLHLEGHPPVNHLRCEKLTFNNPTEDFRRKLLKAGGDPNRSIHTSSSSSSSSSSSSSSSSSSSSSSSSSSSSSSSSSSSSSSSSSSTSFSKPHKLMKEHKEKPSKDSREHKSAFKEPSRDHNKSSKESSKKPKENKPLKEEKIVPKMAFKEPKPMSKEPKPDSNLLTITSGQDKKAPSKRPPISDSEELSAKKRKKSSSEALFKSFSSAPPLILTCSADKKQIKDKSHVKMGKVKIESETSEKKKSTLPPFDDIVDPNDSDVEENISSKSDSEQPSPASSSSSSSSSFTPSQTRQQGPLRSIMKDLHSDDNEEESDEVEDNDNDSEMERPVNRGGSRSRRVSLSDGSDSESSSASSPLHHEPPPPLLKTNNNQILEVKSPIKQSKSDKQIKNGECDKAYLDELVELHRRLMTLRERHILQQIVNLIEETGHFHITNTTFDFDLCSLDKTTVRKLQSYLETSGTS
# FGF22 binding: binders of recombinant human FGF22 by thermal shift | SYPRO orange fluorescence; percent of sucrose octasulfate shift, DMSO zero | hit rate 1.5% among 340,000 | AID 651658 | calls only at 9.99 µM | Q9HCT0;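 active = melting point raised past a set limit in the mean and every replicate; inconclusive = no clear call; three in four hits are not shown here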
# Target sequence (Q9HCT0 whole entry, looked up): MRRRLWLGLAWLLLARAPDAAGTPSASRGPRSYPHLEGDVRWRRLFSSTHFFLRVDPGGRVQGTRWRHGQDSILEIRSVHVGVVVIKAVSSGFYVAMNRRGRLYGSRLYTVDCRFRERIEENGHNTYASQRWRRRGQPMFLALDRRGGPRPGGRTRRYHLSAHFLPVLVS
# UCH37 inh: blocks the human deubiquitinase UCH37 | Q9Y5K5 | purified proteasome/UCH37, Ub-AMC cleavage fluorescence | inhibition, % (no concentration beside the values) | hit rate 0.33% among 330,000 | AID 588478;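 active = mean of two replicates above 20%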;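 also: 0% = compound-free wells with enzyme and 100% = wells lacking proteasome; stock transfer was 100 nL into about 20 µL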
# Target sequence (Q9Y5K5 whole entry, looked up): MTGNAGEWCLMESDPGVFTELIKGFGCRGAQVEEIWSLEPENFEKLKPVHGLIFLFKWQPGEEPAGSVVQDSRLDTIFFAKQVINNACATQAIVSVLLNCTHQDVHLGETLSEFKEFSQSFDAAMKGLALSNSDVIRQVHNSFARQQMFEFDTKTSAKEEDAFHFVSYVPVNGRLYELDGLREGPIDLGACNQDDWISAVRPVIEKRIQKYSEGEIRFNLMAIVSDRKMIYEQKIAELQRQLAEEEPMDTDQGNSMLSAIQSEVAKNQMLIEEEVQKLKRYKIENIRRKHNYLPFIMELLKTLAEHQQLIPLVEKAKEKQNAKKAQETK
#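 Material: Human UCH37 enzyme supplied as purified proteasome complex | Schedule: 30 min compound-proteasome preincubation then 25 min substrate reaction, room temperature | Detection: AMC fluorescence from Ub-AMC cleavage, excitation 355 nm, emission 460 nm | Benchmarks: Wells without proteasome as full block, compound-free enzyme plus substrate as uninhibited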
# RanGTP-Impb inh: inhibitors of RanGTP-importin-beta interaction, primary screen, biochemical, FRET, CFP-Ran, YFP-importin-beta, homogeneous; cell-free CFP-Ran/YFP-importin-beta FRET ratio; inhibition, % (concentration not given with the values); hit rate 1.1% among 300,000;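 active = most replicates above 15%; inconclusive = exactly half above 15%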;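 also: 0% = DMSO wells and 100% = Ran loaded with GDP instead of GTP; wells of about 40 µL received 100 nL stock; the first replicate is given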
# Vif TR-FRET: HIV-1 Vif–A3G interaction blockers – biochemical, TR-FRET, GST-Vif 1-94, biotin-A3G peptide, dose response retest, primary screen (AID 1117319). TR-FRET GST-Vif / biotin-A3G peptide binding; higher % means a stronger effect; test concentration not given here; strong numbers were not always called active. inhibition, %, or IC50 in µM where a hit was titrated. hit rate 0.57% among 260,000;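 active = above the screen mean plus three standard deviations and confirmed in dose response; inconclusive = results disagree or hit not tested in dose response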;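 also: Vif residues 1-94 fused to GST binding biotinylated APOBEC3G peptide 110-148; 0% = full assay without inhibitor and 100% = GST in place of GST-Vif; retest series ran down from 100 µM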
# HNF4A DNA FP: change in binding of human HNF4 alpha to DNA | HNF4a-FITC DNA binding, fluorescence polarization, 1 h | hit rate 0.3% among 360,000 | P41235 | activity change, % at 10 µM; in the data active = activity change above about 30%, passing the limit was not always enough;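 also: controls were the assay level and a saturating level of protein; the project sought stronger binding though the title names inhibitors; some compounds called inactive have numbers as strong as hits; positive values seem to mean higher polarization but the record does not say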
# Numbers without * were called inactive; i = inactive; ? = inconclusive; nt = not tested or not shown; & = joins results of further samples. These rows are one share of the data, so the mix of outcomes need not match the whole.
SMILES,Ecoli growth,MLL AF4-AF9 inh,FGF22 binding,UCH37 inh,RanGTP-Impb inh,Vif TR-FRET,HNF4A DNA FP
Cn1nccc1NS(=O)(=O)c1ccc(F)cc1,0.65,nt,i,1.7,?,1%,0.2
O=C(/C=C/c1cn(-c2ccccc2)nc1-c1cccnc1)N1CCCCC1,0.68,4.6,i,4.4,5.2,-2%,-1.7
COc1ccc(CCNC(=O)C2CCN(S(=O)(=O)c3ccc(OC)c(OC)c3)CC2)cc1OC,0.68,-1.7,i,-4.5,2.4,-2%,3.9
Cc1nc2ccc(NC(=O)N3CCSCC3)cc2s1,0.69,nt,nt,-4.6,-1.6,-3%,-1.0
Cc1csc(SC(C)C(=O)Nc2ccccc2C)n1 (stereo unspecified),0.66,-2.6,i,0.7,nt,-13%,-3.7
CN1C(=S)SC(N(O)C=C2C=CC(=O)C=C2)C1(C)C (stereo unspecified),0.7,nt,nt,7.2,-0.5,-2%,167
Cc1cc(C)n(-c2nc(NCCCO)c3c4c(sc3n2)CCCC4)n1,0.76,nt,nt,-218,3.6,-8%&1%,2.9
O=C(N1CCCCCC1)n1c(Cc2ccccc2)nc2ccccc21,0.7,nt,nt,2.0,-0.4,-3%,0.6
COc1ccc(C(=O)OCC(=O)c2ccc(C3CCCCC3)cc2)cc1,0.7,nt,nt,1.6,0.0,14%,-7.1
Cc1ccc2cc(C(c3nnnn3C3CCCC3)N3CCN(c4ccccc4)CC3)c(=O)[nH]c2c1 (stereo unspecified),0.77,nt,nt,-2.4,-1.6,19%,3.6
O=c1nc(N2CCCCCC2)nc(N2CCCCCC2)[nH]1,0.67,nt,nt,0.9,-2.3,-2%,4.4
Cc1cc(C)cc(C(=O)NC(CC(N)=O)c2ccc(N3CCN(c4ccccc4)CC3)c([N+](=O)[O-])c2)c1 (stereo unspecified),0.7,1.6,i,0.3,-3.1,nt,-0.9
CCc1ccc(NS(=O)(=O)c2cccc3nonc23)cc1,0.64,7.9,i,6.9,0.6,4%,5.6
O=C(c1cccs1)c1c[nH]cc1-c1ccccc1,0.66,2.0,i,9.1,-0.4,nt,-1.9
COC(=O)c1ccc(NC(=O)COc2ccccc2OC)cc1,0.67,nt,nt,2.8,0.6,-5%,-0.3

# 3 entries drawn at random from the list so far:
SMILES,Ecoli growth,MLL AF4-AF9 inh,FGF22 binding,UCH37 inh,RanGTP-Impb inh,Vif TR-FRET,HNF4A DNA FP
O=c1nc(N2CCCCCC2)nc(N2CCCCCC2)[nH]1,0.67,nt,nt,0.9,-2.3,-2%,4.4
Cc1cc(C)cc(C(=O)NC(CC(N)=O)c2ccc(N3CCN(c4ccccc4)CC3)c([N+](=O)[O-])c2)c1 (stereo unspecified),0.7,1.6,i,0.3,-3.1,nt,-0.9
O=C(N1CCCCCC1)n1c(Cc2ccccc2)nc2ccccc21,0.7,nt,nt,2.0,-0.4,-3%,0.6

# The list goes on:
SMILES,Ecoli growth,MLL AF4-AF9 inh,FGF22 binding,UCH37 inh,RanGTP-Impb inh,Vif TR-FRET,HNF4A DNA FP
CN(C)S(=O)(=O)c1ccc(NC(=O)c2ccncc2)cc1,0.7,-4.8,i,3.4,-1.6,nt,-0.3
O=C(NNc1ccc(O)cc1)c1ccc(Br)cc1,0.44*,-0.2,i,2.7,1.9,28%,1.4
O=C1CCCc2ccccc2N1Cc1ccccc1Cl,0.79,nt,nt,1.6,1.0,-2%,3.6
CC(C)C(c1nnnn1C1CCCCC1)N1CCN(c2ncccn2)CC1 (stereo unspecified),0.7,nt,nt,0.5,-1.6,75%,-0.1
O=C(O/N=C(\c1ccccc1)c1ccncc1)c1ccccc1Cl,nt,8.6,nt,nt,-2.2,4%,-2.0
CCN1CCN(c2ccc(S(=O)(=O)N3CCCCC3)cc2NC(=O)c2ccc(C)c(C)c2)CC1,0.66,14,i,0.7,nt,nt,4.0
Cc1ccccc1NC(=O)C1c2ccccc2Oc2ccccc21,0.75,-3.9,nt,0.6,-2.1,nt,2.7
Cn1nnc2cc(C(=O)NCc3ccco3)ccc21,0.69,nt,nt,0.3,5.3,6%,-0.5
C#CCn1c(=NC(=O)CSCC(=O)N2CCOCC2)sc2ccccc21,0.68,0.2,i,1.6,nt,-3%,2.4
O=C(CCn1cnnn1)Nc1ccccc1F,0.69,2.4,i,0.0,-2.1,-2%,-0.1
Cc1csc(NC(C)c2nc3cc(C(F)(F)F)ccc3n2CCOCCO)n1 (stereo unspecified),0.71,-14,i,4.9,-1.1,nt,-0.8
CCCn1nnc(NC(=S)NC(=O)c2cccs2)n1,0.64,nt,nt,3.6,-1.3,0%,-0.4
O=C(NCc1nnc2c(C(F)(F)F)cc(Cl)cn12)c1ccc2c(c1)OCO2,0.67,-2.1,i,4.2,-1.2,nt,3.4
Cc1noc(C)c1-c1nc(CSc2ccc(Cl)cc2)no1,0.73,-2.5,i,1.5,0.0,?,4.4
CN(C)c1nc(OCCNC(=O)COc2ccccc2Cl)nc(N(C)C)n1,0.68,nt,nt,2.3,-3.3,13%,3.8
Cn1cc(CN2CCc3c([nH]c4ccccc34)C2C2CCCCC2)cn1 (stereo unspecified),0.65,10,i,-8.5,6.4,5%,1.7
N#Cc1nc(-c2ccco2)oc1NCCN1CCOCC1,0.73,nt,nt,-21,?,-1%,5.0
O=C(CCCOc1ccccc1)Nc1cccc([N+](=O)[O-])c1,0.69,5.9,i,1.3,7.1,-2%,7.1
Cc1ccc(S(=O)(=O)N(CC(=O)NCc2ccccn2)c2ccc(Cl)cc2)cc1,0.72,0.9,i,2.8,?,nt,-1.0
Cn1c(=O)oc2cc(S(=O)(=O)N3CCC(C(=O)NCc4ccccc4)CC3)ccc21,0.74,7.7,i,-0.9,5.6,nt,1.4
Cc1cccc(N2CCN(CC(=O)Nc3ccc(-n4cnnn4)cc3)CC2)c1C,0.68,nt,nt,0.9,0.4,-4%,-1.4
NC(=O)CC(NC(=O)c1ccc(Br)cc1)c1ccc(NCc2ccc(F)c(F)c2)c([N+](=O)[O-])c1 (stereo unspecified),0.7,2.4,i,0.9,-6.2,-6%,20
O=C(Cn1ccc2ccccc2c1=O)NCCC(=O)N1CCCCC1,0.67,8.1,i,-1.8,-2.3,nt,2.0
CCOC(=O)c1ccc(NC(=O)c2cn(-c3ccccc3)nc2-c2ccncc2)cc1,0.75,nt,nt,4.6,-1.6,9%,1.6
Cc1cccc(N(C)C(=O)COc2cc(=O)n(C)c3ccccc23)c1,0.7,-4.7,i,-4.8,-0.9,11%,5.1
CCOc1ccc(CCN2C(=O)c3ccc(C(=O)O)cc3C2=O)cc1OCC,0.7,-0.6,i,4.0,-0.1,1%,-1.5
O=c1[nH]c(C2CCN(S(=O)(=O)c3ccc(S(=O)(=O)NC4CC4)cc3)CC2)nc2c1nnn2Cc1ccccc1,0.67,-7.2,i,0.7,?,-11%,2.5
Cc1ccc(-c2noc(C3CCCN(C(=O)c4ccccc4Br)C3)n2)o1 (stereo unspecified),0.69,-2.4,i,-1.6,0.1,nt,-1.1
COc1ccc(C(=O)NCC(c2ccccc2)N2CCCC2)cc1S(=O)(=O)N1CCOCC1 (stereo unspecified),0.65,0.8,i,2.3,nt,nt,1.5
CC1CCc2nc3ccccc3c(C(=O)OCC(=O)N(C)C3CCS(=O)(=O)C3)c2C1 (stereo unspecified),0.72,3.6,i,-1.5,2.2,24%,1.9
Cc1c(Cl)c([N+](=O)[O-])nn1CCCC(=O)Nc1cccc(Cl)c1,0.64,nt,nt,4.6,-0.5,1%,2.3
COc1ccccc1NC(=S)NC(=O)Cc1ccc(Cl)cc1,0.73,-1.5,i,5.6,-3.5,nt,1.1
CCCCC1=CC2=CC(=O)C(C)(OC(=O)CC)C(=O)C2=CN1CCc1ccc(Br)cc1 (stereo unspecified),nt,7.8,i,nt,2.7,25%,-0.7
Cc1c(Cl)cccc1NC(=O)CCN1CCN(C)CC1,0.67,0.3,i,2.6,-5.5,nt,-1.2
CCOC(=O)c1cc(-c2ccc([N+](=O)[O-])cc2)nc2c1c(=O)[nH]c(=O)n2Cc1ccccc1,0.7,-1.4,i,3.3,-0.7,nt,-21
O=C(CSc1nc2cc(Cl)ccc2s1)Nc1cccc(S(=O)(=O)N2CCOCC2)c1,0.73,nt,nt,1.1,6.6,nt,5.2
CCOc1cc(C)c(Cl)cc1S(=O)(=O)n1cnc2ccccc21,0.63,nt,nt,0.7,0.0,-5%,1.7
O=c1[nH]c(=S)n(-c2cccc(Cl)c2)c(O)c1/C=N/N1CCOCC1,0.64,4.4,i,6.6,3.9,4%,4.2
COc1ccc(S(=O)(=O)NC(=O)C2(C)CCN2C(=O)COc2ccc(Cl)cc2)cc1 (stereo unspecified),nt,-1.6,i,nt,nt,nt,1.2
COc1ccccc1Oc1coc2c(CN3CCOCC3)c(O)ccc2c1=O,0.7,-1.7,i,-418,-2.7,-2%,0.9
CC(C)NC(=O)COC(=O)c1ccc(O)cc1,0.73,nt,nt,1.2,-2.7,0%,0.7
CCN1CCCC1CNC(=O)c1ccc(CS(=O)(=O)c2ccccc2C)o1 (stereo unspecified),0.67,nt,nt,3.5,0.3,13%,0.5
CN1C(=O)c2ccccc2N(C)C1c1ccc(F)cc1 (stereo unspecified),0.63,2.2,i,i,?,nt,4.7
Cc1ccc(C)c(C(=O)c2c(C)nc3sccn23)c1,0.71,nt,nt,5.7,nt,4%,-2.6
CC(C)C[C@@H](CN)NC(=O)c1nc[nH]c1C(=O)N[C@@H](Cc1c[nH]c2ccccc12)C(=O)CNC[C@H](C)NC(=O)c1nc[nH]c1C(=O)N[C@@H](CC(=O)O)C(=O)O,nt,0.6,i,nt,nt,nt,-1.8
Cc1nc2c(-c3ccc(F)cc3)c(C)nn2c(C)c1CCC(=O)Nc1ccc(F)cc1F,0.66,2.1,i,-28,-3.0,0%,-2.3
CCOc1ccc(NC(=O)CN2CCN(CC(=O)Nc3ccc(N(C)C)cc3)CC2)cc1,0.68,3.4,i,0.6,?,-5%,2.8
CCOC(=O)C1CCCN(S(=O)(=O)c2ccc(NC(C)=O)cc2)C1 (stereo unspecified),0.65,-1.5,i,2.3,-1.7,nt,3.6
Cc1ccc(-n2cnc3c(=O)[nH]cnc32)cc1[N+](=O)[O-],0.65,-0.4,i,3.1,nt,-4%,-0.8
COc1ccc(NC(=O)CSc2ncnc3[nH]ncc23)cc1,0.7,-0.6,i,5.0,-0.5,15%,3.0
C[C@H](CO)N1C[C@H](C)[C@@H](CN(C)C(=O)NC2CCCCC2)Oc2ccc(NC(=O)c3ccncc3)cc2C1=O,nt,-3.9,i,1.4,nt,nt,-0.2
CC(=O)c1c(C)oc2ccc(N(C(C)=O)S(=O)(=O)c3ccc(Cl)c([N+](=O)[O-])c3)cc12,0.73,nt,nt,4.7,-2.6,2%,-1.3
O=C(N/N=C/c1cccnc1)C(O)(c1ccccc1)c1ccccc1,nt,nt,nt,nt,-2.9,0%,-1.8
O=C1Nc2c(Cl)cc(Cl)cc2C1=O,0.64,1.7,i,62*,nt,-6%,-1.0
CC(C)(C)C1CCc2c(sc(NC(=O)C3CC=CCC3C(=O)O)c2C#N)C1 (stereo unspecified),0.72,nt,nt,-0.5,0.6,-2%,-6.7
CCCCNC(=S)N(C)/N=C/c1ccc2c(c1)OCO2,nt,-4.9,i,nt,6.4,nt,-5.6
Nc1ccccc1CNc1nc(NCCO)nc2c1ncn2CCN1CCOCC1,0.65,2.0,i,0.1,-0.8,6%,0.5
Cc1ccc(C)c(NS(=O)(=O)c2cc(C(N)=O)ccc2C)c1,0.66,nt,nt,3.9,5.9,3%,0.0
COc1cccc(CNC(=O)Cn2ccc3cc(S(=O)(=O)N4CCC(C)CC4)ccc32)c1,0.71,-1.8,i,0.8,-1.3,2%,-0.1

# Screening results (PubChem BioAssay)
